# 12-LOX inh: inhibitors of human 12S-lipoxygenase ALOX12; 1.1% of 580,000 active; Potency, µM (doses to about 108 µM), without a hit: at the top dose activity change, negative = inhibition, usual class: inhibitors; purified 12hLO, xylenol orange hydroperoxide absorbance; P18054; active = well fitted inhibition curve with a large enough effect; inconclusive = small, poorly fitted or top-dose-only effect, or another doubt; inactive = no such curve, though single readings can be large or run the other way; also: % is scaled to controls: 0 for no effect and ±100 for the full control effect
# Target sequence (P18054 whole entry, looked up): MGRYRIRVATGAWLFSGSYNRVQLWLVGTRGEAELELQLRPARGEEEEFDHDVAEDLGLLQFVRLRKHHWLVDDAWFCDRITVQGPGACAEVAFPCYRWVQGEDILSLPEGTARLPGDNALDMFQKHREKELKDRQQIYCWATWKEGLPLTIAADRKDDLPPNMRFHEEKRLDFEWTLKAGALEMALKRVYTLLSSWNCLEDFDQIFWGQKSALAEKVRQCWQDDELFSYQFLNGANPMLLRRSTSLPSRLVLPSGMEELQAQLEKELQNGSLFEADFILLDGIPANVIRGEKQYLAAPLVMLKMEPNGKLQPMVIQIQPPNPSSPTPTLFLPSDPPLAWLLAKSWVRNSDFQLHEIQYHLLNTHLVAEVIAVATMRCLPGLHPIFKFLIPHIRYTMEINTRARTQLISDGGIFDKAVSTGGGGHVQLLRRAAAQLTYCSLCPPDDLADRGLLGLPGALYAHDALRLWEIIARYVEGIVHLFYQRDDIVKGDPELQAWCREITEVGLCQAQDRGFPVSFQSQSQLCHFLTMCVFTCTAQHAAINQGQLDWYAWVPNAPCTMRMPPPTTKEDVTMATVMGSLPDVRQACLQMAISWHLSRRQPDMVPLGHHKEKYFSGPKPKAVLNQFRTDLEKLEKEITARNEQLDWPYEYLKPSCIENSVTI
#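 Purified human 12hLO at 150 nM in 25 mM Hepes, 0.01% Triton X-100, pH 7.0, preincubated 15 min at room temperature with compound. Reaction started with 40 uM arachidonic acid, 30 min at room temperature. Hydroperoxide measured by Fe-xylenol orange, 573/405 nm absorbance ratio.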
# ERG-DNA inh: inhibitors of human ERG Ets domain-DNA interaction | P11308 | fluorescence polarization, His-ERG Ets domain / labelled DNA | Potency, µM (titrated, usually from 76.9 µM), without a hit: at the highest dose FP activity, negative = inhibition, usual class: inhibitors | 0.028% of 370,000 active | AID 624246; active = well fitted inhibition curve with a large enough effect in the polarisation, with a control signal flat; inconclusive = small, poorly fitted or top-dose-only effect, or effect the other way, or a change in a side signal; inactive = no such curve, though single readings can be large or run the other way; the % refers to the polarisation;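 also: polarization taken with two DNA probes labelled with fluorescein and Texas red; % of control where 0% means no effect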
#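 His-tagged ERG Ets domain (1 uM in the protein solution; 300mM KCl, 50mM Tris-HCl, 1mM EDTA, 1mM DTT, pH 7.5) received compound, then a probe mix of 5 nM fluorescein-DNA and 100nM Texas-615-DNA. Fluorescence polarization was read for both dyes.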
# * marks the source's active call; other numbers are inactive results; ? = inconclusive; & = joins results of further samples; [ ] = another dose, or the depositor's remark. Potency is read from the fitted curve at half-maximal effect. This is a subset, and most or all hits are left out here.
structure	12-LOX inh	ERG-DNA inh
COc1ccc(-c2cn[nH]c2-c2ccc(OC)cc2)cc1	318%[activator]	11%
Cc1cnc(NC(=O)C2C(=O)c3ccccc3S(=O)(=O)N2C)s1 (stereo not drawn)	-12%	13%
Cc1cnc(NC(=O)C2=C(O)c3ccccc3S(=O)(=O)N2C)s1	?	0%&-13%&-1%&14%
COc1ccc(CC(C)NCC(O)c2ccc(O)c(NC=O)c2)cc1 (stereo not drawn)	-4%&0%	16%
COc1c(N2C[C@@H]3CCCN[C@@H]3C2)c(F)cc2c(=O)c(C(=O)O)cn(C3CC3)c12	-14%	-1%
COc1ccc([C@@H]2Sc3ccccc3N(CCN(C)C)C(=O)[C@@H]2OC(C)=O)cc1	-9%&15%&0%	-11%
COc1cc(NC(=O)Cn2c(=O)oc3cc(S(=O)(=O)N4CCCCCC4)ccc32)cc(OC)c1	-23%	6%

# Filtered by structure: the entries above containing two or more sulfur atoms (2)
structure	12-LOX inh	ERG-DNA inh
Cc1cnc(NC(=O)C2C(=O)c3ccccc3S(=O)(=O)N2C)s1 (stereo not drawn)	-12%	13%
Cc1cnc(NC(=O)C2=C(O)c3ccccc3S(=O)(=O)N2C)s1	?	0%&-13%&-1%&14%

# An excerpt from above in order of their number in ERG-DNA inh, lowest first:
structure	12-LOX inh	ERG-DNA inh
COc1ccc([C@@H]2Sc3ccccc3N(CCN(C)C)C(=O)[C@@H]2OC(C)=O)cc1	-9%&15%&0%	-11%
COc1c(N2C[C@@H]3CCCN[C@@H]3C2)c(F)cc2c(=O)c(C(=O)O)cn(C3CC3)c12	-14%	-1%
Cc1cnc(NC(=O)C2C(=O)c3ccccc3S(=O)(=O)N2C)s1 (stereo not drawn)	-12%	13%
